Source: PubChem BioAssay
LT uptake inh = inhibitors of anthrax lethal toxin internalization | 70,000 compounds, 0.67% hits | Potency, µM (highest dose often 40 µM), for the others: at the highest dose activity change, negative = inhibition, actives largely listed as inhibitors | Cells, anthrax lethal toxin internalization, FRET ratio (460/530) | AID 912; active = well fitted falling ratio curve with the 530 nm signal flat; inconclusive = other ratio curves, or a change in one channel alone; inactive = flat curves in the ratio and both channels; the % refers to the ratio; also: % is scaled to controls: 0 for no effect and ±100 for the full control effect; nearly all actives have a fitted effect of over 50% in size; tested in ME-180 cells; beta-lactamase reporter
Prx2 Sm inh = inhibitors of Schistosoma mansoni peroxiredoxin 2; S. mansoni Prx2 activity coupled to TGR/GSH (TGR is thioredoxin glutathione reductase), NADPH fluorescence loss, qHTS; some inactives read as strong as hits; Potency, µM; 65,000 compounds, 0.07% hits; active means full or partial inhibition curve with a strong effect at the top dose; inconclusive means weaker partial or single-point curve; inactive means no accepted curve; also: series up to 57 µM; many of its hits are not listed in these tables
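qHTS, coupled TGR/Prx2 format; 15 min compound preincubation at RT; reaction started with H2O2 (2.5 mM aliquot); kinetic NADPH fluorescence decrease, ex 365/em 450 nm.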
Active calls of the source: *; ? = inconclusive; nt = no result given; & = joins results of further samples; [ ] = dose if it differs, or a comment. Potency is read from the fitted curve at half-maximal effect. Only part of the results is shown; rates above refer to the full screens.

SMILES | LT uptake inh | Prx2 Sm inh
O=C(O)c1ccccc1SC1CC(=O)N(C2CCCCC2)C1=O (configuration not stated) | 13% | >57
O=C(Cn1nc(Cc2cccnc2)c2ccccc2c1=O)N1CCC2(CC1)OCCO2 | 11% | >57
O=C(NCC1CCCO1)c1ccccc1-c1nc(-c2ccc(Cl)cc2)no1 (configuration not stated) | -3% | >57
O=C(NCc1ccco1)C(c1ccc(F)cc1)N(CC1CCCO1)C(=O)Cn1nnc2ccccc21 (configuration not stated) | -14% | >57
Oc1ccc(-c2nc(-c3ccc(F)cc3)c(-c3ccncc3)[nH]2)cc1 | ? | >57&>57
CCOC(=O)C1CCN(C(=O)CC2C(=O)N(Cc3ccccc3)C(C)c3nc4ccccc4n32)CC1 (configuration not stated) | 0% | >57
Nc1cc(N)nc(SCCN2CCCCC2)n1 | -7% | >57
CC(C)[C@H](NC(=O)[C@@H]1CSCN1C(=O)OC(C)(C)C)C(=O)NCC1CCC(C(=O)O)CC1 (some centres not stated) | 12% | >57
COC(=O)[C@H](CCSC)NC(=O)Nc1ccc(C)c(C)c1 | ? | >57
O=c1c2ccccc2nc(SCc2ccccc2)n1Cc1ccco1 | ? | >57
CCN1C(=O)[C@H]2[C@H]3[C@H](O)[C@H](O)C/C(=N/NC(=O)OCc4ccc(OC)cc4)[C@H]3CC[C@@H]2C1=O | 5%[0.32 µM] | nt
Cc1c(N=Cc2cc3c(cc2Cl)OCO3)c(=O)n(-c2ccccc2)n1C | -8% | nt
Cc1cc(C)c2c(=O)n(CC(=O)N3CCC(N4CCCCC4)CC3)sc2n1 | 3.2µM* | >57
O=C(CN1CC(c2ccccc2)CC1=O)OCc1ccccc1F (configuration not stated) | -5% | >57
O=C1C(=O)c2ccccc2C(O)=C1C1CCC(c2ccc(Cl)cc2)CC1 (configuration not stated) | -4%[3.58 µM] | >57
COCCNC(=O)COc1cccc(Oc2ccccc2)c1 | -1% | >57
CC(C)Cc1nc2oc3c(NCC4CCCO4)ncnc3c2c2c1CCC2 (configuration not stated) | -6% | >57
N#C[C@@H](Cc1ccc(O)c(O)c1)C(=O)N1CCc2ccccc21 | -1% | >57
CCC(C)(C)n1nnnc1CN(Cc1cc2cc(OC)ccc2[nH]c1=O)C1CCCC1 | ? | >57
CCOc1ccc2[nH]c(=O)c(CN(CCO)C(=O)c3ccccc3F)cc2c1 | -6% | >57
CNC(=O)NC(=O)CSc1nc2cc(C(=O)OC)ccc2c(=O)n1-c1ccccc1 | -4% | >57
NCCCCCCCCCCN | 0% | >57
COC(=O)c1ccc(C(NC(=O)OCc2ccccc2)/C(C)=C/[C@@H](C)C(=O)NCc2nc3ccccc3s2)cc1 (some centres not stated) | -8% | nt
CC1(C)CC(=O)C(C=NCCC2=CCCCC2)=C(O)C1 | 10% | nt
O=C(O)CCC(=O)Nc1ccc(S(=O)(=O)N2CCCC2)cc1 | 8% | >57
CC(=O)OCC(=O)[C@@]1(O)CC[C@@H]2[C@@H]3CCC4=CC(=O)CC[C@@]4(C)[C@H]3C(=O)C[C@]21C | 5% | >57
CCCCC(c1nnnn1C1CCCC1)N1CCN(C2CCCC2)CC1 (configuration not stated) | -13% | >57
CCn1nnc(NC(=O)c2cccnc2)n1 | nt | >57
O=C(NCCc1ccc(S(=O)(=O)N2CCCC2)cc1)c1cccs1 | -3% | nt
COC(=O)c1ccc(OCC(O)CN(CC(C)C)CC(C)C)cc1 (configuration not stated) | -5% | >57
O=C(CSc1ncn(-c2ccccc2)n1)Nc1ccc2c(c1)OCCO2 | 29% | >57
C=CCNC(=O)CCCCC(=O)NCC=C | 6% | >57
CCN(CC)CCN(CC)Cc1ccccc1Br | ? | nt
CCOc1ccc(Nc2oc(Cc3ccccc3)nc2C#N)cc1 | -11% | >57
Cc1ccccc1NC(=O)c1ccc(NC(=O)c2ccco2)cc1 | -4% | >57
CC1=C(C(=O)N2CCOCC2)C(c2cccs2)NC(=O)N1 (configuration not stated) | -10% | >57
O=C(NCc1cccs1)C1CCCN(S(=O)(=O)c2ccc(Br)s2)C1 (configuration not stated) | 9% | >57
N#Cc1cccc(NC(=O)N2CC3(CCN(C(=O)c4ccco4)CC3)C2)c1 | ? | >57
CN(Cc1ccco1)c1ncncc1-c1cccnc1 | -5% | >57
C=CCN1C(=O)C2C(C(=O)NC3CCCCC3)C3C=CC2(O3)C1C(=O)NC1CCCC1 (configuration not stated) | -6% | >57
CC(C)OCCCNC(=O)CCc1nc(-c2ccccc2)no1 | -2% | >57
Cc1ccc2cc(C(c3nnnn3C(C)(C)C)N3CCCCCC3)c(=O)[nH]c2c1 (configuration not stated) | -13% | >57
Cc1cc(C)n(-c2cccc(Cl)c2)c(=O)c1C#N | 2% | >57
CC(=O)Nc1nc(-c2ccccc2)nc(-c2ccccc2OC(C)=O)n1 | ? | >57
CN(C)c1ccc(C2N(c3ccc(F)cc3)C(=O)C3CCCN32)cc1 (configuration not stated) | 4% | >57
COC(=O)c1[nH]c2ccccc2c1NC(=O)CNC1CCCCC1 | ? | >57
COc1ccc(-n2nc(C(=O)Nc3ccc4c(c3)OCO4)c3ccccc3c2=O)c(OC)c1 | 3% | >57
NC(=Nc1ccccc1)Nc1ccccc1 | -22% | nt
Cc1ccc(-c2nnn(CC(=O)N3CCCCC3)n2)c(-n2cnnn2)c1 | -16% | >57
C/C(=N\O)C(=O)C(CN1CCCCC1)CN1CCCCC1 | -9% | >57
Cc1noc(C)c1COC(=O)c1cc(F)c(F)cc1Cl | ? | >57
O=C(c1cnn2cccnc12)N1CCN(Cc2ccc3c(c2)OCO3)CC1 | -6% | >57
CC(=O)c1c(N=CN(C)C)nc(C)nc1-c1ccccc1 | -8% | >57
Cc1ccc2cc3cc(C(=O)N4CCCCCC4)oc3nc2c1 | 8% | >57
Cc1ccc(C)c(N2CCN(C(=O)c3cc(S(=O)(=O)N4CCOCC4)ccc3F)CC2)c1 | ? | >57
O=C(O)CCCNc1cc(N2CCC3(CC2)OCCO3)c2noc3c2c1C(=O)c1ccccc1-3 | -5% | >57
Cc1sc2nc3n(c(=O)c2c1C)NC(=O)CC3 | -13% | >57
CCOC(=O)CSc1nnc(-c2ccccc2NC(=O)c2ccccc2)o1 | -1% | >57
CCCC(=O)CN1C(=O)C2(OCCO2)c2ccccc21 | -9% | >57
CC(C)(C)c1ccc(S(=O)(=O)N2CCCC2C(=O)NC2=NCCS2)cc1 (configuration not stated) | 21% | >57
Continued:
SMILES | LT uptake inh | Prx2 Sm inh
COc1ccccc1C(=O)NCCC(=O)N1CC(=O)Nc2ccccc21 | 10% | >57
O=C(COc1c(F)c(F)c(C(F)(F)F)c(F)c1F)Nc1ccc(N2CCOCC2)c(Cl)c1 | ? | nt
O=C(CSc1nnc(C2CC2)n1Cc1ccccc1)c1cc2ccccc2o1 | -11% | >57
O=C(Nc1ccc(Br)c2cccnc12)c1ccc(Cn2cc(Cl)cn2)o1 | -12% | >57
Cc1cccc(CCN(Cc2cc3cccc(C)c3[nH]c2=O)C(=O)N2CCOCC2)c1 | -4% | >57
Cn1c(=O)c2c(ncn2CC(N)=O)n(C)c1=O | 7% | >57
Cn1nnc(NC(=O)c2ccccc2F)n1 | -2% | >57
O=C(c1ccco1)N1CCN(c2ncnc3c2[nH]c2ccc(Br)cc23)CC1 | ? | >57
COc1ccc(C(CNC(=O)Cn2[nH]c(=O)c3ccccc3c2=O)N2CCCC2)cc1 (configuration not stated) | -12% | >57
CC1(C)Cc2c(sc3nn[nH]c(=O)c23)CO1 | -6% | >57
CCS(=O)(=O)n1nc(-c2ccccc2)nc1SCc1ccccc1 | -17% | >57
COc1ccc(-c2nc3cnc(OC)nc3n(CCC#N)c2=O)cc1 | 4% | >57
c1ccc(-c2nc3nc4ccccc4nc3n2Cc2ccco2)cc1 | ? | >57
CCN(CC)S(=O)(=O)c1ccc(NC(=O)COC(=O)c2ccc(Br)o2)cc1 | -17% | >57
CCOC(=O)c1c(N)sc(C(O)(C(F)(F)F)C(F)(F)F)c1-c1ccc(OC)cc1OC | -27% | nt
CCN(CC)S(=O)(=O)c1ccc(C(=O)NCc2n[nH]c(=S)n2Cc2ccccc2)cc1 | 16% | >57
CCOc1ccccc1-c1nnc(SCC(=O)NC2CC3CCC2C3)n1CC (configuration not stated) | -17% | >57
Cc1cc2oc(=O)cc(C)c2c(=O)o1 | 12% | >57
CN(C)CCOc1nc(-c2ccccc2)nc2c1oc1ccccc12 | nt | >57
O=C1CCC(=O)N1c1ccc(CSc2nc3ccccc3[nH]2)cc1 | -11% | nt
N[C@@H](Cc1cc(O)c(O)cc1O)C(=O)O | -9% | >57
CC(=O)N1CCc2cc(S(=O)(=O)NC(C(=O)NC3CCCc4ccccc43)C(C)C)ccc21 (configuration not stated) | -8% | >57
FC(F)C(F)(F)C1=CC(c2cccs2)=NCCN1 | -6% | >57
O=C(CC1CCCCC1)N1CCN(c2ccccn2)CC1 | -3% | >57
O=C(CSc1ccccn1)N1CCN(c2ccccc2)CC1 | nt | >57
O=C(Cn1cnc2ccccc21)OCC(=O)N1CCc2ccccc2C1 | 11% | >57
CCN(CC)c1ccc(NC(=O)C2CCCN(S(=O)(=O)c3cccnc3)C2)c(C)c1 (configuration not stated) | -13% | >57
Clc1ccc2c(c1)CNc1c(ncnc1N1CCOCC1)O2 | -14% | >57
CCOc1ccc(OCc2ccc(C(=O)OCc3ccccn3)o2)cc1 | ? | >57
CCCc1cc(=O)[nH]c(NCc2ccc(Cl)cc2)n1 | nt | >57
CCOc1ccccc1-c1cc(-c2ccc(OC)cc2)nc2c1c(=O)n(C)c(=O)n2C | 15% | >57
CC(=O)Nc1nc2n(n1)C(c1ccc(Cl)cc1)C=C(C)N2 (configuration not stated) | ? | >57
N#Cc1nc(-c2ccc(OCc3ccccc3)cc2)oc1NCc1ccco1 | ? | >57
COc1ccc2c(c1)C(C)=CC(C)(C)N2C(=O)CNCc1ccc2c(c1)OCO2 | 0% | >57
O=C(O)c1cc2ccccc2c(S(=O)(=O)O)c1O | -10%[8 µM] | >57
COCc1[nH]nc2c1C(c1ccccc1Cl)C(C#N)=C(N)O2 (configuration not stated) | 9% | >57
CCCCC/C=C\C[C@H](O)/C=C\c1cccc(C[C@H](O)CCCCO)n1 | ? | >57
CCOc1ccccc1OCC(O)CNC (configuration not stated) | -3% | >57
Cc1cc2ccccc2c(=O)n1CC(=O)NCC(=O)N(C)Cc1ccccc1 | 7% | >57
CCOc1ccc(S(=O)(=O)N(C)c2ccc(OCC(=O)OCc3c(C)noc3C)cc2)cc1 | -6% | >57
c1c[nH]c(CN2CCOCC2)n1 | 5%[8 µM] | >57
COc1ccc2nc(SCC(=O)NC(C)C)[nH]c2c1 | -3% | >57
COc1cc(NS(=O)(=O)c2ccc(F)cc2)c(OC)cc1NC(=O)C1CC1 | -11% | >57
COC(=O)C1=C(C)NC(C)=C(C(=O)OCCSc2ccccc2)[C@@H]1C | ? | >11
COc1ccc(S(=O)(=O)N(CCc2ccccc2)CC(=O)N2CCOCC2)cc1 | 4% | >57
CC(NC(=O)Cc1ccccc1)c1nc2ccccc2[nH]1 (configuration not stated) | -10% | >57
O=CNc1ncn[nH]1 | -9%[8 µM] | >57
COC(=O)c1cc(S(=O)(=O)n2nc(C)cc2C)c(Cl)cc1Cl | ? | nt
O=P(O)(CP(=O)(c1ccccc1)c1ccccc1)c1ccccc1 | -1% | >57
COc1cccc(N2C(=O)C3CCCN3C2c2ccc(F)cc2)c1 (configuration not stated) | -21% | >57
COc1cccc(-n2nnnc2SCC(=O)NCc2ccco2)c1 | -5% | >57
CCCCNc1cc(NC(C)=O)cc2cc(OC)c(OC)cc12 | -8% | >57
COC(=O)c1cc(Oc2ccc(C(=O)OC)cc2N)cc(C(=O)OC)c1 | ? | >57
CCc1nc(C)cn1S(=O)(=O)c1cc(Br)ccc1OC | -8% | >57
CCOC(=O)C1CCCN(c2ncnc3c2cnn3-c2ccc(Cl)cc2)C1 (configuration not stated) | -10% | >57
COc1ccc(CNC(=O)C2CC=CCC2C(=O)O)cc1OC (configuration not stated) | 6% | >57
CCOC(=O)CNC(=O)CSc1nnnn1-c1cc(C)ccc1C | 16% | >57
